Rango-impB inh – qHTS Assay for Inhibitors of Rango (Ran-regulated importin-beta cargo) - Importin beta complex formation; Rango CFP/YFP FRET sensor + importin beta, 45 min; Potency, µM (highest dose often 92.2 µM), for the others: at the highest dose inhibition of complex formation; actives 0.031% (n = 340,000); AID 540263, 2011; active = rising FRET ratio curve, often small or poorly fitted; inconclusive = mostly compound fluorescence or quenching in the first reads; inactive = flat curves in all reads;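 note: potency is the fitted concentration of half-maximal effect; 0% = DMSO wells and 100% = buffer wells lacking importin beta; nearly all actives have a fitted effect of over 15% in size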
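FRET biosensor Rango (snurportin 1 IBB between N-terminal EYFP and C-terminal Cerulean), 50 nM in PBS/1 mM DTT/0.02% Tween-20/0.1% BSA, preincubated 5 min RT with compound; 0.125 microM importin beta added, 45 min RT, CFP/YFP FRET ratio read.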
miR-21 FLuc – qHTS Assay for Modulators of miRNAs and/orActivators of miR-21; HeLa miR-21 FLuc reporter, luciferase, 48 h; Potency, µM (series often up to 38.3 µM), without a hit: at the highest dose reporter change, positive = more light; 340,000 tested, under 10 active; AID 2288, 2010; active = well fitted rising curve with a large enough effect; inconclusive = small, poorly fitted or top-dose-only effect; inactive = no such curve, though single readings can be large or run the other way;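 note: % of control where 0% means no effect; miR-21 action dims this reporter so a rising signal means less miR-21 action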
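Luminescence from a firefly luciferase reporter carrying a miR-21 binding site downstream, stably expressed under a CMV promoter in HeLa cells that make miR-21 endogenously, reports miRNA modulation after 48 h compound exposure up to approximately 40uM final.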
GLA inh pH 4.5 – qHTS Assay for Inhibitors of Human alpha-Galactosidase at pH 4.5; AID 1467, 2008; 230,000 tested, under 10 active; purified enzyme, 4-MU-alpha-Gal fluorescence, pH 4.5; Alpha-galactosidase A (Homo sapiens), P06280; activity change, negative = inhibition, % at 105 µM; inconclusive = small, poorly fitted or top-dose-only inhibition, or a rising curve; inactive = flat fitted curve, though single readings scatter; no compound was filed as active;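 note: 0% = full activity with enzyme and -100% = basal without enzyme; dose as in the result columns while the protocol names 77 µM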
Target sequence (P06280 whole entry, looked up): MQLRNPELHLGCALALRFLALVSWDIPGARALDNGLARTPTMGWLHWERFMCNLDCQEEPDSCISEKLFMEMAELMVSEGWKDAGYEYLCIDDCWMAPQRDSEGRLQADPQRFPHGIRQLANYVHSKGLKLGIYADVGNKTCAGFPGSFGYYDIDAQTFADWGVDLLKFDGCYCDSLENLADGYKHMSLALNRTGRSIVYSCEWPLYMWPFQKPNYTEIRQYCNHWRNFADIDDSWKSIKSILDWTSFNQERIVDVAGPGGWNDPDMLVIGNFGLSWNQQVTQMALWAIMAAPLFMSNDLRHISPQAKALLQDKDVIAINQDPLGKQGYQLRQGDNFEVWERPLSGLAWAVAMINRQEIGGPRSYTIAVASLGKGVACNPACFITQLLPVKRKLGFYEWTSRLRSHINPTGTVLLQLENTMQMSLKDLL
Rango release inh – qHTS Assay for Inhibitors of RanGTP induced Rango (Ran-regulated importin-beta cargo) - Importin beta complex dissociation; Biochemical FRET Rango-importin beta, RanGTP-induced dissociation; AID 540253, 2011; Potency, µM (series often up to 46.1 µM), for the others: at the highest dose activity change, negative = inhibition; actives 0.071% (n = 340,000); active means falling FRET ratio curve, often poorly fitted, with flat reads before Ran was added; inconclusive means other falling curves, or compound fluorescence or quenching; inactive means flat or rising ratio curve;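 note: potency is the fitted concentration of half-maximal effect; % of control where 0% means no effect; nearly all actives have a fitted effect of over 45% in size; -100% = wells without RanGTP and RCC1; the record marks most hits as doubtful in a second field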
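Rango (0.1 uM)–importin beta (0.25 uM) complex; RanGTP-RCC1 trigger; 45 min RT; CFP/YFP FRET read.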
The depositor's hits bear a star; ? = inconclusive; . = not tested or not shown; & = joins results of further samples; [ ] = dose if it differs, or a comment. The list is partial; rates above refer to the full screens.

#	GLA inh pH 4.5	Rango release inh	Rango-impB inh	miR-21 FLuc	SMILES
1	-3	1%	0.8%	-1%	CC(C)CN(C(=O)CN1CCN(S(=O)(=O)c2ccc3ccccc3c2)CC1)c1c(N)n(CC(C)C)c(=O)[nH]c1=O
2	2	1%	5.1%	-1%	Cc1ccc(CN2CCN(Cc3cn[nH]c3-c3cccc(F)c3)CC2CCO)o1 (configuration not stated)
3	3	-8%	-3.4%	-13%	CCCN(CC1COc2ccccc2O1)C(=S)Nc1ccc(C)cc1 (configuration not stated)
4	.	18%	-1.4%	9%	CCN(CC(=O)Nc1ccc(NC(C)=O)cc1)C(=O)Cc1ccc(Cl)c(Cl)c1
5	.	-7%	-0.4%	-5%	CCc1ccc(Nc2nc(C)cc(C)c2C(N)=O)cc1
6	.	2%	1.3%	.	CC(NC(=O)COC(=O)C1CCC1)c1ccccc1 (configuration not stated)
7	-5	-3%	1.7%	-14%	CC(=O)OCC(=O)[C@H]1CC[C@H]2[C@@H]3CCC4=CC(=O)CC[C@]4(C)[C@H]3CC[C@]12C
8	6	-17%	0.9%	-8%	O=C(Nc1ccccc1C(F)(F)F)c1cc(S(=O)(=O)N2CCOCC2)ccc1F
9	-2	0%	-0.6%	-14%	CC(C)(C)c1ccc(-c2nnc3sc(-c4ccncc4)nn23)cc1
10	2	12%	-0.8%	5%	CCCCN(C(=O)/C=C/c1ccco1)c1c(N)n(CC(C)C)c(=O)[nH]c1=O
11	.	-7%	-2.5%	-1%	Cc1cccc(N2C(=O)c3ccc(C(=O)Nc4ccccn4)cc3C2=O)c1
12	4	1%	0.4%	-5%	CC(=O)N1CCc2cc(Br)cc(S(=O)(=O)NCCN3CCCCC3C)c21 (configuration not stated)
13	0	-4%	2.3%	3%	O=C(COC(=O)/C=C/c1ccc(S(=O)(=O)N2CCOCC2)cc1)NCc1ccc(Cl)cc1
14	6	-1%	-1.3%	0%	Cc1noc(C)c1S(=O)(=O)N1CCCC(C(=O)Nc2cccnc2)C1 (configuration not stated)
15	1	-11%	-3.4%	3%	O=C(O/N=C1\CCCc2ccccc21)C1CC1
16	-19[21.1 µM]	-8%	-0.1%	-1%	O=[N+]([O-])c1cc2c(cc1/C=N/n1cnnc1)OCO2
17	5	-10%	-4.2%	0%	COc1ccc(C(=O)N/C(=C\c2cc(OC)c(OC)cc2[N+](=O)[O-])C(=O)NCCO)cc1
18	-12	-6%	0.7%	2%	C=CCN(CC=C)CC(O)CN(c1cc([N+](=O)[O-])ccc1OC)S(=O)(=O)c1ccccc1 (configuration not stated)
19	2	-3%	-2.2%	-5%	CCOc1ccc(NC(=S)N(CCN2CCOCC2)Cc2cc3cc4c(cc3[nH]c2=O)OCCO4)cc1
20	5	2%	1.2%	23%	Cc1cccc(NC(=O)C2CCN(S(=O)(=O)c3cccc4cccnc34)CC2)c1
21	-9	1%	-0.6%	-23%	COc1ccc(-c2noc(CN(C(=O)c3ccc(OC(C)=O)cc3)C(C)C)n2)cc1OC
22	0	-6%	-1.8%	-4%	Nc1nc(Nc2ccccc2)n[nH]1
23	.	15%	-1.5%	-1%	CCOc1ccccc1CN1CCNC(=O)C1CC(=O)N(C)CCc1ccccn1 (configuration not stated)
24	.	22%	?	8%	CCOC(=O)c1ccc(NC(=O)CCS(=O)(=O)c2cccc3nonc23)cc1
25	-1	6%	0.5%	-16%	COc1ccc(OC)c(NC(=O)Nc2nnc(N3CCCCC3C)s2)c1 (configuration not stated)
26	2	1%	0.4%	-11%	Cc1cc(=O)oc(C)c1C(=O)NC1CCCCCCC1
27	-8	-4%	-0.1%	-8%	CC(=O)c1sc(NC(=O)c2cccnc2Cl)nc1C
28	2	-3%	-2.6%	2%&0%	Cc1ccc2oc(=O)c3cnn(CC(=O)N4CCN(c5ccccc5)CC4)c3c2c1
29	-1	17%	9.6%	10%	COc1ccc(CCNC(=O)COC(=O)/C=C/c2ccc(OC)c(OC)c2)cc1
30	-7	-1%	-0.5%	-3%	CCN1CCC(C(N)=O)CC1

Shown tab-delimited: part of the list above
cpd	mol	GLA inh pH 4.5	Rango release inh	Rango-impB inh	miR-21 FLuc
1	CC(C)CN(C(=O)CN1CCN(S(=O)(=O)c2ccc3ccccc3c2)CC1)c1c(N)n(CC(C)C)c(=O)[nH]c1=O	-3	1%	0.8%	-1%
2	Cc1ccc(CN2CCN(Cc3cn[nH]c3-c3cccc(F)c3)CC2CCO)o1 (configuration not stated)	2	1%	5.1%	-1%
3	CCCN(CC1COc2ccccc2O1)C(=S)Nc1ccc(C)cc1 (configuration not stated)	3	-8%	-3.4%	-13%
4	CCN(CC(=O)Nc1ccc(NC(C)=O)cc1)C(=O)Cc1ccc(Cl)c(Cl)c1	.	18%	-1.4%	9%
5	CCc1ccc(Nc2nc(C)cc(C)c2C(N)=O)cc1	.	-7%	-0.4%	-5%
6	CC(NC(=O)COC(=O)C1CCC1)c1ccccc1 (configuration not stated)	.	2%	1.3%	.
7	CC(=O)OCC(=O)[C@H]1CC[C@H]2[C@@H]3CCC4=CC(=O)CC[C@]4(C)[C@H]3CC[C@]12C	-5	-3%	1.7%	-14%
8	O=C(Nc1ccccc1C(F)(F)F)c1cc(S(=O)(=O)N2CCOCC2)ccc1F	6	-17%	0.9%	-8%
9	CC(C)(C)c1ccc(-c2nnc3sc(-c4ccncc4)nn23)cc1	-2	0%	-0.6%	-14%
10	CCCCN(C(=O)/C=C/c1ccco1)c1c(N)n(CC(C)C)c(=O)[nH]c1=O	2	12%	-0.8%	5%
11	Cc1cccc(N2C(=O)c3ccc(C(=O)Nc4ccccn4)cc3C2=O)c1	.	-7%	-2.5%	-1%
12	CC(=O)N1CCc2cc(Br)cc(S(=O)(=O)NCCN3CCCCC3C)c21 (configuration not stated)	4	1%	0.4%	-5%
13	O=C(COC(=O)/C=C/c1ccc(S(=O)(=O)N2CCOCC2)cc1)NCc1ccc(Cl)cc1	0	-4%	2.3%	3%
14	Cc1noc(C)c1S(=O)(=O)N1CCCC(C(=O)Nc2cccnc2)C1 (configuration not stated)	6	-1%	-1.3%	0%

Further records:
#	GLA inh pH 4.5	Rango release inh	Rango-impB inh	miR-21 FLuc	SMILES
31	.	?	6.8%	1%	O=C(CNC(=O)N1CC(=O)Nc2ccccc21)NCc1ccc(Cl)cc1
32	.	0%	0.8%	-3%	Cc1cc(=O)n2nc(N3CCCC(C(=O)NCc4ccccc4)C3)sc2n1 (configuration not stated)
33	0	-6%	1.7%	-6%	Cc1ccc(CNc2nc(N)c([N+](=O)[O-])c(Nc3ccc(F)cc3)n2)cc1
34	-2	-9%	2.8%	-21%	CCCC(=O)c1cc(F)c(N2CCOCC2)cc1C
35	.	-7%	3.7%	.	COc1ccc(CNC(=O)c2ccccc2SCC(=O)N2CCCC2)cc1OC
36	1	-19%	-2.5%	-4%	COc1cccc(C2N(c3cccc(Cl)c3)C(=O)C3CCCN32)c1 (configuration not stated)
37	6	-2%	-3.5%	-5%	CC1CCC(NCc2ccco2)CC1 (configuration not stated)
38	3	-25%	-0.9%	-7%	CCN(CC)S(=O)(=O)c1cccc(N2CC(O)=C(c3ccccc3)C2=N)c1
39	4	-23%	0.0%	-8%	CC(=O)N1CCN(c2ccc(NCc3cccs3)cc2)CC1
40	-9	-2%	-0.2%	-6%	Cc1c(C(=O)NCc2cccnc2)oc2ccccc12
41	-12	6%	-1.7%	-2%	Cn1c(=O)c2c(nc(CN3CCC(Cc4ccccc4)CC3)n2CCN2CCOCC2)n(C)c1=O
42	2	14%	?	22%	COc1ccc(NC(=O)c2nc(C)c(C3(C)CC(c4cccnc4)=NO3)s2)cc1 (configuration not stated)
43	.	5%	2.1%	.	COc1ccc(S(=O)(=O)NCc2cccnc2)cc1NC(=O)c1ccccc1C
44	0	-13%	-1.0%	-1%	O=C(O)CCCCCNS(=O)(=O)c1ccc(Cl)cc1
45	.	9%	0.5%	-1%	O=C(Nc1ccccc1Oc1ccsc1C(=O)O)c1ccccc1
46	-8	-9%	-2.5%	-7%	CCn1c(COc2cccc3ccccc23)nnc1SCC(N)=O
47	.	-7%	0.7%	-24%	CC(=O)Nc1cc2nn(-c3ccccc3)nc2cc1C
48	-1	-11%	-2.5%	-5%	COC(=O)c1c(C)nc(C)c(C(=O)OC)c1-c1cccs1
49	-4	-9%	3.1%	-10%	O=c1c(C=NCCCO)c(-c2ccccc2)[nH]n1-c1nc2ccccc2s1
50	-10	8%	-1.4%	2%	CC(=O)NC(Cc1c[nH]c2ccccc12)C(=O)OCC(=O)Nc1cc(C)on1 (configuration not stated)
51	9	0%	-0.7%	-2%	Cc1ccc(CCC2C3=C(CCCC3=O)OC3=C2C(=O)CCC3)cc1
52	.	1%	-1.3%	0%	Cc1ccc(C(=O)C(C)OC(=O)Cn2[nH]c(=O)c3ccccc3c2=O)cc1 (configuration not stated)
53	-7	-21%	0.5%	-1%	CCc1ccc(OCCCC(=O)Nc2ccc(N3CCOCC3)cc2)cc1
54	-3	-1%	0.7%	-21%	CCn1c2ccccc2c2cc(NC(=O)CNC)ccc21
55	3	8%	-0.1%	0%	CC(C)CN(C(=O)COC(=O)Cn1cnc2ccccc2c1=O)C1CCS(=O)(=O)C1 (configuration not stated)
56	3	2%	2.7%	-2%	Clc1ccc(Cl)c(-c2ccc(/C=N/c3ncn[nH]3)o2)c1
57	-2	0%	4.1%	3%	Oc1ccccc1N=Cc1c(O)ccc2oc3c(c12)CCCC3
58	-3	13%	4.8%	1%	O=C(NC1CCN(C(=O)C2CCCCC2)CC1)c1ccccc1
59	-3	.	.	23%	Cc1ccc(-n2c(C)c([N+](=O)[O-])c3ccc(O)cc32)cc1
60	3	-19%	?	0%	CC1=C(C(N)=O)C(c2ccco2)C(C(N)=O)=C(C)N1
61	.	-1%	0.7%	-5%	Cc1ccccc1-n1ncc2c1CC(C)(C)CC2NC(=O)c1cn[nH]c1C (configuration not stated)
62	3	-12%	-1.5%	-8%	Cc1cc(C)c2c(n1)sc1c(=O)n(-c3ccccc3)c(=O)[nH]c12
63	.	-2%	0.3%	12%	CCC(=O)N1CCN(c2ccccc2NC(=O)COc2ccc(C(C)C)cc2)CC1
64	.	2%	3.4%	0%	COc1ccccc1CNC(=O)[C@H](C)NC(=O)C1CCN(C(=O)[C@H](CCSC)NC(=O)OC(C)(C)C)CC1
65	4	5%	-0.1%	3%	Cc1ccc(NC(=O)C2CCN(c3nc(C)cc(C)n3)CC2)cc1
66	.	6%	0.4%	-2%	COc1ccc(OC)c(CCNC(=O)Cn2cccc2C(=O)c2ccccc2)c1
67	-12	-1%	-2.2%	-9%	N#Cc1nc(COc2ccc(Cl)cc2)oc1NCc1ccc2c(c1)OCO2
68	7&-2	-24%	-4.0%	6%	COC(=O)C1=C(C(=O)OC)[C@@H]2N(C)c3ccccc3[C@@]23C[C@@H](C(=O)OC)N(C(=O)CC(C)C)C3=N1
69	.	11%	-1.1%	?	CC(=O)N1CCCc2cc(S(=O)(=O)N3CCCC(C(=O)NCc4ccccc4)C3)ccc21 (configuration not stated)
70	.	5%	4.5%	9%	O=C(N/N=C\C=C\c1ccc([N+](=O)[O-])o1)c1cccs1
71	.	-3%	-1.9%	4%	CN(CC1CCN(CCc2cccc(C(F)(F)F)c2)CC1)C(=O)c1ccccc1
72	.	9%	0.1%	14%	CCOC(=O)N1CCN(C(=O)C2CCCN(S(=O)(=O)c3c(C)cc(C)cc3C)C2)CC1 (configuration not stated)
73	.	18%	12%	.	COc1c(O)cccc1[C@H](O)C1CCN(CCc2ccc(F)cc2)CC1
74	-7	19%	-0.5%	-10%	CCN=c1sc(C(=O)Nc2ccccc2)c(C)n1CC
75	.	2%	-1.8%	1%	O=C(CC1C(=O)NCCN1Cc1ccccc1C(F)(F)F)NC1CCC1 (configuration not stated)
76	.	3%	0.0%	-9%	CC(=O)Nc1nc(CCC(C)C)cc2c1c(=O)oc1ccccc12

Compound activity as filed in PubChem BioAssay.
